# UUG fidelity: modulators of start codon recognition fidelity in yeast; S. cerevisiae UUG-firefly luciferase reporter, luminescence/redox ratio; activity score, % at 18.7 µM; 0.13% of 350,000 active; AID 602363;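 active = replicate mean at a twofold rise or more, about +100% in these data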;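 note: firefly luciferase made from a UUG start codon reports start codon fidelity; reporter light over untreated wells divided by growth signal over untreated wells; some hits fall short of that in this replicate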
# MT1-MMP act inh: inhibitors of human MT1-MMP activation; HT1080 RFP-PRO-GFP cells, GFP/RFP ratio fluorescence, overnight; percent of plate control window, DMSO zero; GFP/RFP ratio change, % at 20 µM; 0.061% of 360,000 active; AID 651647;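 active = GFP/RFP ratio change of at least 30% with cell ATP level not reduced by more than half and red fluorescence within 50% of control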; note: strong numbers were not always called active
#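 Assay system: HT1080 RFP-PRO-GFP cells. Benchmarks: DMSO vehicle wells and RFP-L50D-GFP reporter cell wells. Times: overnight cell settling, then overnight compound exposure, 37 °C, 5% CO2. Compound: 20 µM single dose, 1% DMSO. Read-out basis: GFP/RFP fluorescence ratio.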
# PABP FP inh: blocks human PABP binding to poly(A) RNA | inhibition, % at 35 µM | fluorescence polarization | 1% of 290,000 active;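 active = 50% or more with normal probe brightness, or confirmed in later tests; inconclusive = above 50% with abnormal brightness, or retests that disagree; inactive = below 50% or failed in later tests; about a fifth of its hits are not listed in these tables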;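 note: calls also rest on retests at 20 µM and on dose response follow-up; controls were probe without protein and protein plus probe with vehicle; some compounds called inactive have numbers as strong as hits; many hits fall short of the cut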
# Target sequence (P11940 whole entry, looked up): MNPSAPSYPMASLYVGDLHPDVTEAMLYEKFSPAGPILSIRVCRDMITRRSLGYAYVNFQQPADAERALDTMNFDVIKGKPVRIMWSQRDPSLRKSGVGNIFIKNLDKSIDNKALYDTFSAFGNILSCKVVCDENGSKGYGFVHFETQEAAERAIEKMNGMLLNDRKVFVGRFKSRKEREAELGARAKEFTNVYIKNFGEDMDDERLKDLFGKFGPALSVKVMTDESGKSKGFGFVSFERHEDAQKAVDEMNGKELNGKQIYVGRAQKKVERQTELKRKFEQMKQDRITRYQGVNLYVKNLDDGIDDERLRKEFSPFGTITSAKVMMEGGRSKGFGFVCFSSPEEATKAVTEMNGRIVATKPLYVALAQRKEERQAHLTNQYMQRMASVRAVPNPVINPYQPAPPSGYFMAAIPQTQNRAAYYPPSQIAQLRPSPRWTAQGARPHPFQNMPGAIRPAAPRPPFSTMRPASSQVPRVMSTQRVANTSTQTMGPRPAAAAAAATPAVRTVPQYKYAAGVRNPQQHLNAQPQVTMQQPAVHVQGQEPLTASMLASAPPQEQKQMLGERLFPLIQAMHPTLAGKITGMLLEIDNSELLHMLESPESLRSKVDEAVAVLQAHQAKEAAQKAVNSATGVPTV
# CSC inhib: cancer stem cell inhibition; 1.1% of 300,000 active; cancer stem cell-like cells viability, luminescence; AID 2717; inhibition, % at 7.5 µM;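 active = mean at 75% or more and at least half the replicates too; inconclusive = mean and replicates disagree; tested in HMLE shEcad cells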;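 note: 0% = median of negative and 100% = median of positive control wells; the first replicate is given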
# HIV Env fusion: inhibitors of HIV Env-mediated cell fusion. HeLa-JRFL Env/CEM21 cell fusion, luciferase. inhibition, % at 12.3 µM. 1.1% of 360,000 active;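 active = mean replicate inhibition score of at least 50 and every replicate individually at or above 50; inconclusive = only one of the two criteria met; inactive = mean below 50 and not all replicates reaching 50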;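 note: 0% = plate neutral controls and 100% = maraviroc near 300 nM; one replicate is shown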
# eIF4H inh: inhibitors of RNA binding by human eIF4H. eIF4H fluorescence polarization binding assay. inhibition, % at 35 µM. 0.94% of 290,000 active;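 active = 50% or more with normal probe brightness, or confirmed in later tests; inconclusive = above 50% with abnormal brightness, or retests that disagree; inactive = below 50% or failed in later tests; about a fifth of its hits are not listed in these tables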;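 note: calls also rest on retests at 20 µM and on dose response follow-up; 0% = protein and probe with vehicle and 100% = probe without protein; strong numbers were not always called active; many hits fall short of the cut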
# Rce1 inhib: blocks yeast Ras-converting enzyme; Q03530; yeast membranes, quenched prenylated peptide cleavage fluorescence; calls only; 0.27% of 290,000 active;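 active = fall in fluorescence gain of 50% or more versus controls, with final raw signal at or below 3038400; inconclusive = same 50% fall but final raw signal above 3038400; inactive = fall in fluorescence gain under 50%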;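 note: plate controls were neutral control wells for no effect and wells lacking membranes for full effect; tested at 10 µM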
# Target sequence (Q03530 whole entry, looked up): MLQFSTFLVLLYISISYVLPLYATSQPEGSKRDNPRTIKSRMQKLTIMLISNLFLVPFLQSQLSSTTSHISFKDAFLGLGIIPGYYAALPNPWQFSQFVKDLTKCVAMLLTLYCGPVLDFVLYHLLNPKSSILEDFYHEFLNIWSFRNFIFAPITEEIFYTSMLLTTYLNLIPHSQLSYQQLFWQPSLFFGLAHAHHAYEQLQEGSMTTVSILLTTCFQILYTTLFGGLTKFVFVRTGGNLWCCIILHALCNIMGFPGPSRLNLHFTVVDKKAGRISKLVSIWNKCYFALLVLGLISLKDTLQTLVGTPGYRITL
# eIF4H inh retest: recorded beside eIF4H inh, whose call it bears; inhibition, %; compound at 20 µM; confirmation average;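 mean of two retest wells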
# PABP FP inh retest: second read-out of PABP FP inh, no call of its own (marks repeat the call); inhibition, %; compound at 20 µM; confirmation repeats;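 mean of two retest wells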
# MT1-MMP act inh RFP: also measured in MT1-MMP act inh; calls as there; RFP signal change, %; measured here: RFP expression control read;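 0 = vehicle wells; hits needed this value within 50% of zero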
# Numbers without * were called inactive; i = inactive; u = inconclusive; x = no result given. The list is partial; count on the stated rates, not on these rows.
SMILES,UUG fidelity,MT1-MMP act inh,MT1-MMP act inh RFP,PABP FP inh,CSC inhib,HIV Env fusion,eIF4H inh,Rce1 inhib,others
COc1ccc(-c2cc(C(=O)NNC3=NCCC3)c3c(C)nn(-c4ccccc4)c3n2)cc1,x,4,-2,-2,x,23,-1,i,
COc1cc(C(=O)N[C@H](C(=O)NC2CCCCCC2)C(C)C)cc(OC)c1OC,2,-6,-6,-4,-7,x,2,i,
CCN(CC)S(=O)(=O)c1ccc(N2CCOCC2)c(NS(=O)(=O)c2ccc(C)cc2)c1,x,-9,-1,6,-16,-6,11,i,
O=C(CCn1c(=O)oc2ccccc21)NCc1ccc2c(c1)OCO2,-5,-2,3,-7,-22,-1,-6,i,
Cc1c2cnn(CC(=O)Nc3cccc(C(F)(F)F)c3)c(=O)c2c(C)n1Cc1ccccc1F,-16,10,2,0,-5,-19,-3,i,
C/C(=N\Nc1nc(N2CCCCCC2)nc(N2CCCCCC2)n1)c1ccccc1,-17,-1,-3,27,43,16,3,i,
COc1cccc(-c2ccc3nnc(SCC(=O)Nc4ccc(NC(C)=O)cc4)n3n2)c1,-23,7,-4,x,0,5,x,i,
COc1ccc(OCC(=O)Nc2cc(-c3nn(C)c(=O)c4ccccc34)ccc2N2CCOCC2)cc1,x,-2,-1,-8,17,29,-8,i,
CC(Cc1ccccc1)C(=O)NCc1ccncc1 (configuration not stated),-18,0,0,5,1,14,6,i,
O=C(NCc1cccc(C(F)(F)F)c1)C1CCC(=O)N(C2CCCCCC2)C1 (configuration not stated),2,5,4,0,-10,4,-6,i,
CC(NC(=O)CN1CCN(Cc2ccc(Cl)cc2)C1=O)c1ccc2c(c1)OCCO2 (configuration not stated),1,2,1,3,-9,-3,3,i,
O=C1NC[C@H](Cc2ccccc2)N(C[C@H]2CCCN2C[C@H](Cc2ccccc2)N2C[C@H](Cc3ccc(O)cc3)N(CC3CCCCCC3)C(=O)C2=O)C1=O,-10,-3,-14,x,x,-13,x,x,
Cc1csc(NC(=O)C2=COCCO2)n1,-29,1,6,x,1,x,x,i,
COC(=O)c1cccc(C(=O)N2CCCC(C(=O)c3cccc(OC(C)C)c3)C2)c1 (configuration not stated),-20,2,3,-2,16,8,-10,i,
C=CCNc1nnc(-c2ccncc2)s1,x,2,7,0,-3,x,9,i,
CCN(CC)CCn1c2c(c(SCC(=O)Nc3ccccc3Cl)nc1=O)CCC2,x,-4,-3,x,-13,6,x,i,
CCCC(C(=O)NC1CCCC1)N(C(=O)Cn1nnc(-c2ccc(C)o2)n1)C1CCCC1 (configuration not stated),x,-9,3,-11,-6,x,-7,i,
CCOC(=O)C(=Cc1ccc2c(c1)OCO2)c1ccccc1,-20,1,1,x,x,11,x,x,
CCc1ccc(OCC(=O)NC(NC(=S)Nc2ccccc2C)C(Cl)(Cl)Cl)cc1 (configuration not stated),-5,-8,-14,8,-11,x,1,i,
CCN1CCN(c2ccc(N3CCN(C(=O)c4ccc(Br)o4)CC3)nn2)CC1,-9,-1,-2,x,71,-7,x,i,
O=C(O)c1ccc2c(c1)C(=O)N(CCCCCCCN1C(=O)c3ccc(C(=O)O)cc3C1=O)C2=O,2,0,3,1,-3,-6,3,i,
COc1ccccc1-n1c(CNC(=O)c2cccs2)n[nH]c1=S,x,6,2,-8,-11,13,-1,i,
CCCc1cc(=O)[nH]c(SCC(=O)CSc2nc(CCC)cc(=O)[nH]2)n1,-12,-5,4,2,3,x,2,i,
CC(=O)Nc1ccc(SCC(=O)N(CCC#N)c2cc(C)cc(C)c2)cc1,x,-1,-10,-11,12,-65,-9,x,
Nc1ncnc2c1ncn2[C@@H]1O[C@H](CNCc2ccccc2OCC(=O)N2CCCCC2)[C@@H](O)[C@H]1O,-5,0,4,x,x,10,x,x,
SMILES,UUG fidelity,MT1-MMP act inh,MT1-MMP act inh RFP,PABP FP inh,CSC inhib,HIV Env fusion,eIF4H inh,Rce1 inhib,others
COc1ccc(/C=N/NC(N)=S)cc1OC(=O)c1cccc2ccccc12,66,-3,-7,1,13,-79,-2,i,
Cc1nn(C)c(C)c1NC(=O)CCSc1nc(-c2ccco2)cc(C(F)(F)F)n1,x,-1,-2,3,4,x,-6,i,
CC1=CC=CN2C1=NC(=O)CC2(C)C(=O)N(CC(=O)NC1CCCC1)c1cc(C)cc(C)c1 (configuration not stated),x,3,5,4,-16,8,1,i,
COc1ccc(C(CNC(=O)CN2C(=O)NC(C)(c3ccc4ccccc4c3)C2=O)N2CCCC2)cc1 (configuration not stated),-5,1,-2,x,x,6,x,x,
CS(=O)(=O)N(CC(=O)NCCSC1CCCCC1)c1cccc(F)c1,-12,-2,2,-6,-7,12,-2,i,
COc1ccc(CNc2nc(NCc3ccc(OC)cc3)c3ncn(C4CCCC4)c3n2)cc1,-1,3,-8,x,63,x,x,x,
COc1ccc(-n2c(=O)c3c4c(sc3n(CC(=O)NC3CCCC3)c2=O)CCCC4)c(OC)c1,x,-2,4,1,16,13,-11,i,
O=C(N/C(=C/C=C/c1ccccc1)C(=O)N1CCCCC1)c1ccc([N+](=O)[O-])cc1,x,-2,-9,-6,-11,15,9,x,
O=C(c1cccc(S(=O)(=O)N2CCN(c3ccccc3)CC2)c1)N1CCCC(C(F)(F)F)C1 (configuration not stated),-1,-7,-29,x,1,71*,x,i,
COc1ccc(OC)c(NC(=S)N(CCc2c(C)[nH]c3ccc(C)cc23)Cc2cccs2)c1,-13,2,-2,-1,33,14,17,i,
COC(=O)C1CCN(C(=O)COc2ccc(S(=O)(=O)N3CCOCC3)cc2Cl)CC1,-4,2,5,x,x,0,x,x,
CC1CCCCC1NC(=O)COC(=O)c1ccc2c(c1Cl)C(=O)c1ccccc1C2=O (configuration not stated),-12,3,2,-5,14,14,3,i,
CCN(c1cccc(C)c1)S(=O)(=O)c1cccc(C(=O)O)c1,-16,-1,-4,-3,-2,-2,-4,i,
O=C(Nc1ccccc1)Nc1nc(-c2ccc(Cl)cc2)cs1,-1,-1,-1,-11,7,x,-9,i,
CCCCNCCOCCOc1ccccc1-c1ccccc1,x,3,-2,8,40,-24,-11,i,
C=CCNC(=S)NNC(=O)c1ccc(=O)n(Cc2ccc(Cl)cc2Cl)c1,-20,7,-4,18,5,14,0,i,
COc1ccc(NC(=O)COc2ccc3c(C)cc(=O)oc3c2)cc1S(=O)(=O)N1CCCCC1,x,11,-6,x,-6,6,x,i,
CC(NC(=O)c1ccccc1F)c1nnc(SCC(=O)N2CCN(c3ccccc3)CC2)n1C (configuration not stated),x,5,0,2,-8,3,1,i,
CCN(C(=O)c1cnc(NC(C)C)cc1C(F)(F)F)c1ccc(Cl)cc1Cl,8,-6,-10,2,-5,11,0,i,
O=C1NC(Cc2ccc(O)cc2)c2nc3ccc(Cl)cc3c(=O)n2-c2cc3ccccc3cc21 (configuration not stated),-4,-27,-26,x,x,-125,x,x,
CC1=C(C(=O)NC2CCC(C)CC2)C2(CCC(C)CC2)OC1=O (configuration not stated),-3,4,-1,-13,2,-73,0,i,
O=C(Cc1nnc(NC(=O)c2ccccc2)s1)N/N=C/c1ccco1,5,-5,4,6.2*,-8,x,82,i,eIF4H inh retest=29;PABP FP inh retest=64*
Cc1cc(NC(=O)CCc2ccc(-c3ccccc3)o2)no1,-18,-3,0,-2,0,-16,7,i,
CCCCN(C(=O)CSc1nnc(Nc2ccc(C)c(C)c2)s1)c1c(N)n(Cc2ccccc2)c(=O)[nH]c1=O,-17,-39,-33,-3,-20,x,-8,i,
O=C(NCCCN1CCCC1)c1cccc(N2CCCC2=O)c1,-8,3,6,0,-3,x,17,i,
SMILES,UUG fidelity,MT1-MMP act inh,MT1-MMP act inh RFP,PABP FP inh,CSC inhib,HIV Env fusion,eIF4H inh,Rce1 inhib,others
CCc1noc(C)c1C(=O)N1CCN(c2cccc(C)c2C)CC1,-15,3,-2,x,x,2,x,i,
CCC/C(O)=C1\C(=O)CC(c2ccccc2)CC1=NC (configuration not stated),x,2,6,-3,-7,-69,-7,i,
O=C(NC(=S)Nc1ccccc1[N+](=O)[O-])c1ccco1,x,4,7,12,2,-16,1,i,
CCN1CCN(c2ccc(S(=O)(=O)N3CCCCC3)cc2NC(=O)c2ccc(C)c(C)c2)CC1,0,0,-2,x,x,10,x,x,
Cc1cc(C)c2c(N)c(C(=O)c3ccccc3)oc2n1,-13,1,1,13,x,-18,5,i,
Cc1ccc(OCC(=O)NNC(=O)CSc2ncc(C#N)c(N)n2)cc1,x,-4,4,-2,-17,3,-8,i,
O=C(COc1cccnc1[N+](=O)[O-])Nc1ccc(S(=O)(=O)N2CCOCC2)cc1,x,-1,-3,-22,-9,3,-1,i,
COC(=O)C(C(=O)OC)=C(/C=C/C=C/N(C)C)N(C)C,5,-7,2,91*,-7,-23,101*,i,
CN(C)c1cccc(-c2cc(Nc3ccc(C(C)(C)C)cc3)ncn2)c1,-17,5,-4,x,x,-6,x,x,
CC(=O)N1c2ccc(Cl)cc2C2C=CCC2C1c1cccc2ccccc12 (configuration not stated),x,-55,-12,-6,78*,x,10,x,
Cn1c(/N=C(\N)c2ccccc2)nc2ccccc21,-45,1,2,x,x,-86,x,x,
CCC1(c2ccc(Cl)cc2)NC(=S)N(c2ccc(C)c(C)c2)N1 (configuration not stated),x,-3,1,0,14,6,10,i,
CSc1sc(C)cc1C1C(C#N)=C(N)N(c2cccnc2)C2=C1C(=O)CC(C)(C)C2 (configuration not stated),-6,0,8,11,2,x,-7,i,
CCCCn1c(SCC(=O)Nc2nnc(CC)s2)nc2c1c(=O)n(C)c(=O)n2C,-9,-25,-21,-3,68,2,8,i,
Brc1ccc(CNCC2CCCO2)cc1 (configuration not stated),-13,2,6,8,-12,-3,0,i,
Cc1ccc(C(=O)NCCN2CCOCC2)cc1Cl,x,0,7,-1,10,x,7,i,
O=C(Nc1ccc(S(=O)(=O)N2CCOCC2)cc1)c1ccc([N+](=O)[O-])o1,1,2,-11,-3,u,-166,-7,i,
Cc1c(NC(=O)C(C)n2cc([N+](=O)[O-])cn2)c(=O)n(-c2ccccc2)n1C (configuration not stated),-11,-11,-4,1,-5,-7,1,i,
COc1ccc(C)cc1NC(=O)CN1CCN(S(=O)(=O)c2ccc(Cl)cc2)CC1,3,0,-2,-5,-10,x,3,i,
COc1ccc(CSc2ncn[nH]2)cc1[N+](=O)[O-],x,-2,4,-4,-8,4,-4,i,
Cc1ccc(S(=O)(=O)/N=C(/c2ccccc2)N(C)C)c(C)c1,-4,0,-1,2,26,0,6,i,
Clc1ccc(Oc2nc(N3CCOCC3)nc(N3CCOCC3)n2)cc1,-18,-1,10,2,-13,x,-2,x,
COc1ccccc1Cc1c(-c2ccco2)nc2ccc(C)cn12,9,-5,-7,x,x,-20,x,x,
O=C(COc1ccc2ccccc2c1)NNC(=O)C(=O)Nc1ccccc1,-17,-1,1,-4,5,1,20,i,
COC(=O)[C@H](CC(C)C)NS(=O)(=O)c1ccc(F)cc1Br,10,1,-1,x,x,-6,x,x,
CN(C)C(=O)c1c(NC(=O)c2ccco2)sc2c1CCCCC2,3,2,1,-1,-7,x,4,i,
COc1ccccc1N1CCN(c2ccc(Cl)nn2)CC1,x,4,7,13,1,-10,12,i,
Cc1ccc(C(=O)NCCCNC(=O)COc2ccc(Cl)c(C)c2)cn1,x,-7,-1,x,-6,-7,x,i,
CCCCCCOC(=O)c1ccccc1NC(=O)/C=C/C(=O)O,-2,-1,-2,15,x,-47,-14,i,
